# RanGTP-Impb inh – inhibitors of RanGTP-importin-beta interaction, primary screen, biochemical, FRET, CFP-Ran, YFP-importin-beta, homogeneous | cell-free CFP-Ran/YFP-importin-beta FRET ratio | inhibition, % (no concentration beside the values) | 300,000 compounds, 1.1% hits | AID 2216;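 active = most replicates above 15%; inconclusive = exactly half above 15%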;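 also: 0% = DMSO wells and 100% = Ran loaded with GDP instead of GTP; wells of about 40 µL received 100 nL stock; the first replicate is given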
# B2AR ag – agonists of human beta-2 adrenergic receptor inducing internalization. Am2.2-beta2AR cells, FAP receptor internalization, flow cytometry; reference of the scale not given here. response, % (test concentration not listed). 340,000 compounds, 0.43% hits. AID 504454;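 active = response above a set limit, near 3 SD of response in nonfluorescent compounds, cut at about 42% in these data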;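 also: stock transfer was 100 nL into about 11 µL; a reference agonist was the positive control; negative values mostly stem from fluorescent compounds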
# Target sequence (P07550 whole entry, looked up): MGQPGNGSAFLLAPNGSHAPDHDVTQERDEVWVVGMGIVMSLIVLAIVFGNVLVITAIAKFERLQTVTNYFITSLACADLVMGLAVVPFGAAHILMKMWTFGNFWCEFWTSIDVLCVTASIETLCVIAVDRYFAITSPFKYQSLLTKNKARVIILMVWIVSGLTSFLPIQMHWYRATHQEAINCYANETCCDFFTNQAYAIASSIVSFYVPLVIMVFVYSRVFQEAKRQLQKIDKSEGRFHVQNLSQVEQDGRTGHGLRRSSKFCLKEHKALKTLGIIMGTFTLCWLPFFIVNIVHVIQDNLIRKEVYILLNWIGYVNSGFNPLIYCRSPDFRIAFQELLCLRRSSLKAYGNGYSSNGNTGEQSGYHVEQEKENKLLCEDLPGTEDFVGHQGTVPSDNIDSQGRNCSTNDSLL
# HNF4A DNA FP – change in binding of human HNF4 alpha to DNA | P41235 | HNF4a-FITC DNA binding, fluorescence polarization, 1 h | activity change, % at 10 µM | 360,000 compounds, 0.3% hits; in the data active = activity change above about 30%, passing the limit was not always enough;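 also: controls were the assay level and a saturating level of protein; the project sought stronger binding though the title names inhibitors; some compounds called inactive have numbers as strong as hits; positive values seem to mean higher polarization but the record does not say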
# Target sequence (P41235 whole entry, looked up): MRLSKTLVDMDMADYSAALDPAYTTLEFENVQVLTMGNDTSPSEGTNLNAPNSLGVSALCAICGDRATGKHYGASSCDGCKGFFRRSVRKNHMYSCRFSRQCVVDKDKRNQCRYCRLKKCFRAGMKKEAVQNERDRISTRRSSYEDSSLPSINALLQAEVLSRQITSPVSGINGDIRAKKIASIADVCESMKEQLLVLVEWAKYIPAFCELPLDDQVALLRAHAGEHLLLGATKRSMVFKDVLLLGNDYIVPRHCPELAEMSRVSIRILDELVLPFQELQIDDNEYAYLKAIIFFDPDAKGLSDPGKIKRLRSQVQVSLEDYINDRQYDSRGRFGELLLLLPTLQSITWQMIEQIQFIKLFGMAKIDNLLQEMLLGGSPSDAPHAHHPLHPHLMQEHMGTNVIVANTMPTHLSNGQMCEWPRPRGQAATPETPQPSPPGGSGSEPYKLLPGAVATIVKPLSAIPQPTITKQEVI
# Vif TR-FRET – HIV-1 Vif–A3G interaction blockers – biochemical, TR-FRET, GST-Vif 1-94, biotin-A3G peptide, dose response retest, primary screen (AID 1117319); TR-FRET GST-Vif / biotin-A3G peptide binding; higher % means a stronger effect; test concentration not given here; strong numbers were not always called active; inhibition, %, or IC50 in µM where a hit was titrated; 260,000 compounds, 0.57% hits;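 active = above the screen mean plus three standard deviations and confirmed in dose response; inconclusive = results disagree or hit not tested in dose response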;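 also: Vif residues 1-94 fused to GST binding biotinylated APOBEC3G peptide 110-148; 0% = full assay without inhibitor and 100% = GST in place of GST-Vif; retest series ran down from 100 µM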
# Calb FLC – affects C. albicans growth with fluconazole; C. albicans CaCi-2 (fluconazole-resistant clinical isolate) + fluconazole, Alamar Blue growth, 48 h; growth inhibition, % (concentration not given with the values); 300,000 compounds, 0.57% hits;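 active = most replicates above 75%; inconclusive = exactly half above 75%; inactive = most below 75%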;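 also: all wells also contain fluconazole at 8 µg/ml as a sub-toxic cotreatment; 0% = median of DMSO wells and 100% = median of geldanamycin control wells; wells of about 8 µL received 7.5 nL stock; the first replicate is given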
# LANA-H2B inh – blocks KSHV LANA binding to histone H2A/H2B | cell-free LANA-H2A/H2B peptide, fluorescence polarization | inhibition, % (test concentration not listed) | 320,000 compounds, 0.6% hits | AID 2629; in the data active = inhibition mostly above about 10%, no sharp cut-off; inactive = mostly below about 6.7%;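 also: stock transfer was 7.5 nL into about 10 µL; 0% = median of vehicle wells and 100% = median of positive control wells; one replicate is shown; the record names a cut of 25% in any replicate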
# ALR inh – human ALR oxidase inhibition via reduced H2O2; purified ALR, DTT oxidation, H2O2 HRP-luminol luminescence; 290,000 compounds, 3.8% hits; inhibition, % (test concentration not listed);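 active = mean and each replicate at 75% or more; inconclusive = only one of the two met; inactive = neither met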;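 also: stock transfer was 7.5 nL into about 7.5 µL; 0% = neutral wells and 100% = wells with inactivated enzyme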
# Target sequence (P55789 whole entry, looked up): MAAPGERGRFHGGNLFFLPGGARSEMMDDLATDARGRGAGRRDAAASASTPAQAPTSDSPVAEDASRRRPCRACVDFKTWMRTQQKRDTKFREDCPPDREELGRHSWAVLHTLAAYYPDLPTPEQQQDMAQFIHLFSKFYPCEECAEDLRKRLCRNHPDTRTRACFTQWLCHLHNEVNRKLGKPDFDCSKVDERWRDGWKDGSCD
# * hit, by the source's call; i = inactive; ? = inconclusive; / = not tested or not shown; + = active, no number; & = joins results of further samples. Rows were taken by chance, and some 6.3% of all compounds hit somewhere here.
no.	structure	RanGTP-Impb inh	B2AR ag	HNF4A DNA FP	Vif TR-FRET	Calb FLC	LANA-H2B inh	ALR inh
1	O=C(Nc1cnn(C23CC4CC(CC(C4)C2)C3)c1)c1cnn2c(C(F)(F)F)cc(-c3ccco3)nc12	?	37	-2.9	14%	-10	7.3	-3
2	CCN1CCN(c2nc(SC)nc3sc4c(c23)CC(C)(C)OC4)CC1	-1.3	-11	-0.1	-1%	-1	/	/
3	COCCCNC(=O)CCc1c(C)nc2c(c(C)nn2-c2ccccc2)c1C	?	0	0.6	3%	-11	-2.3	0
4	Cc1cc(C)c2c(n1)sc1c(=O)n(-c3ccccc3)c(=O)[nH]c12	1.6	-5	0.0	24%	-2	-6.1	-6
5	CCOC(=O)c1c(C)[nH]c(C=Nc2ccccc2)c1O	-4.3	/	/	8%	-2	/	/
6	O=C(c1cc(Sc2cccc(Cl)c2)nc2ccccc12)N1CCN(c2ccccn2)CC1	-7.1	-2	6.2	-6%	28	1.1	-5
7	O=C(NCC1CCCCC1)c1cc(S(=O)(=O)N2CCOCC2)ccc1F	/	8	-2.3	-2%	/	i	0
8	CCc1nnc(NS(=O)(=O)c2ccc(NC(=S)NC(=O)c3ccc(Br)cc3)cc2)s1	-2.0	-4	-2.7	/	11	1.0	47
9	CCn1c(=O)c([N+](=O)[O-])c(NCC2CCCO2)c2ccccc21 (centres undefined)	-2.5	0	3.3	2%	4	-4.5	/
10	Cc1cc(C(=O)Nc2c(C)nn(Cc3ccc(Cl)cc3)c2C)no1	2.1	-3	-2.2	-6%	-1	2.3	-6
11	COC(=O)C1=C(N)OC2=C(C(=O)CC(C)(C)C2)C1c1ccccc1OC (centres undefined)	3.1	1	3.5	/	2	-0.5	66
12	Cc1ccc(NC(=O)c2nc[nH]c2C(=O)N[C@@H](CCCCNC(=O)OC(C)(C)C)C(=O)OC(C)(C)C)cc1	-0.5	21	-0.1	-2%	9	4.7	-4
13	O=C(CN1C(=O)/C(=C\c2cccc(Cl)c2)Oc2ccccc21)N1CCN(c2ccccn2)CC1	-1.5	/	/	-14%	7	1.0	9
14	COCCN(C(=S)Nc1cc(C)cc(C)c1)C(C)c1cccnc1 (centres undefined)	0.1	1	-3.7	/	-4	-5.1	-1
15	Cc1ccc(C(=O)NC(=S)N(C)C2CCCCC2)cc1	-1.1	-5	1.7	-6%	-16	7.7	2
16	CCOc1ccccc1CNC(=O)C1CCC(=O)N1C(C)C (centres undefined)	1.6	10	-0.9	15%	8	-6.5	-6
17	C#CCOCCOCCOCCNc1nc(N2CCN(C(=O)[C@H]([C@@H](C)CC)n3cc([C@@H](N)CC(C)C)nn3)CC2)nc(N2CCN(C(=O)[C@H](Cc3cc4ccccc4[nH]3)n3cc([C@@H](N)Cc4ccc(O)cc4)nn3)CC2)n1	8.5	/	/	-6%	9	-1.9	-8
18	Cc1ccc(C2CC(=O)Oc3cc(O)ccc32)cc1 (centres undefined)	?	-6	-2.2	19%	-5	6.4	26
19	CCOc1ccc(-n2c(=O)[nH]c3sc4c(c3c2=O)CCCC4)cc1	-0.6	7	6.8	1%	3	-0.3	/
20	Cc1ccccc1OCC(O)Cn1c(SC(C)C)nc2c1c(=O)[nH]c(=O)n2C (centres undefined)	5.1	-2	0.7	16%	-8	-1.2	-15
21	CCCCOCCCNC(=O)c1ccccc1OCC	-0.7	-4	-1.0	25%	-13	5.4	-4
22	CC(C)(C)NCCOc1ccc(Br)cc1	4.3	-2	1.9	4%	1	0.2	-5
23	O=C(NCCc1ccccc1)C1CCCN1S(=O)(=O)c1ccc(Cl)cc1 (centres undefined)	?	4	-1.1	/	1	-1.8	-3
24	O=C(NC1(C(F)(F)F)NC(=O)N(CC2CCCCC2)C1=O)c1ccco1 (centres undefined)	-1.8	-3	2.5	9%	-29	3.8	34
25	CCN(CC(=O)Nc1cccc(OC)c1)C(=O)C1CCN(C(=O)Nc2ccccc2)CC1	3.0	2	2.5	-6%	-3	1.3	-2
26	CC(C(=O)NCC1CCCCC1)N1CCN(S(=O)(=O)c2ccccc2F)CC1 (centres undefined)	-3.6	1	-1.9	0%	-8	3.0	-5
27	CC(=O)N1CCC(N(CCN2CCOCC2)C(=S)Nc2ccc(C)cc2)CC1	-1.1	-6	0.5	-4%	-14	-0.3	-2
28	O=C(COC(=O)c1n[nH]c2ccccc12)NC1CCCCC1	/	-5	-2.9	-5%	/	-1.9	34
29	O=C(Cc1ccc(Cl)cc1)OCC(=O)N1CCCCCC1	/	-4	2.4	4%	/	-5.6	50
30	O=CN1CCN(c2c([N+](=O)[O-])c(=O)oc3ccccc23)CC1	0.7	19	-2.6	9%	-2	5.5	1
31	COc1ccc(C2SCC(=O)N2C)cc1 (centres undefined)	2.6	7	-3.8	-1%	3	4.7	-4
32	Cc1ccc(NC(=O)CN2C(=O)S/C(=C\C(=O)Nc3ccc(Cl)cc3)C2=O)cc1	0.6	-8	-1.1	/	-7	0.2	/
33	Cc1cc(=O)[nH]c(SCCOc2ccc3c(c2)CCC3)n1	2.7	1	5.2	8%	34	3.7	-11
34	N#CCC(=O)N/N=C\c1cccc(OC/C=C/c2ccccc2)c1	-1.4	-2	1.3	3%	-3	1.7	-1
35	CC1CC(C)CN(C(=O)COC(=O)CNC(=O)C23CC4CC(CC(C4)C2)C3)C1 (centres undefined)	5.1	3	-0.5	-3%	-6	1.6	-16
36	COCCn1c(N)c(N(Cc2ccccc2)C(=O)COc2ccccc2F)c(=O)[nH]c1=O	/	15	1.8	-1%	/	-0.7	-3
37	Cc1cccc(OCC(=O)Nc2ccc3c4c(cccc24)CC3)c1C	-1.8	6	2.5	-2%	-5	-1.0	-15
38	CCOC(=O)c1cccc(NC(=O)CN2C(=O)C3C4C=CC(C4)C3C2=O)c1 (centres undefined)	1.1	5	1.9	-6%	3	-0.7	-5
39	COc1ccc(NC(C)=O)cc1NC(=O)CN1CCN(CC(=O)Nc2ccc(Cl)cc2)CC1	6.3	-18	-2.4	5%	20	-4.8	-5
40	C/C(=C\c1ccccc1)C(=O)Nc1nccs1	?	5	-0.6	-9%	-1	/	/
41	O=C(N/N=C1\C(=O)c2cccc3cccc1c23)c1ccc(O)cc1	3.7	-1	-3.0	4%	-1	+	-3
42	O=C(COC(=O)c1ccccc1C(=O)N1CCN(c2ccc(F)cc2)CC1)NCc1ccccc1	2.2	7	-0.6	18%	-3	4.2	31
43	Cc1cccc2cc3c(nc12)-c1ccccc1C3=O	1.8	-1	-0.6	-4%	8	-1.6	0
44	Cn1cc(/C=C/c2cc[n+](C)cc2)c2cc(Cl)ccc21	-228	/	93	1%	82*	-199	/
45	Nc1nc(SCc2ccccc2)c2ncn(Cc3ccccc3)c2n1	/	-11	2.2	-1%	/	/	/
46	CCc1ccc(-c2nc(CN3CCC(C(=O)NCc4ccco4)CC3)c(C)o2)cc1	-3.4	/	/	-4%	16	-7.3	-8
47	COc1ccc(C(CC(=O)NCc2ccccc2)C(C)C)cc1 (centres undefined)	4.5	-2	-3.4	-1%	-15	1.7	/
48	CC(=O)Nc1ccc(C(=O)NNC(=O)c2cc([N+](=O)[O-])cc([N+](=O)[O-])c2)cc1	7.0	-1	-0.6	/	10	-0.1	-68
49	Nn1c(SCc2nc3ccccc3[nH]2)nnc1C1CCCCC1	-0.5	1	-19	7%	-8	-12	-4
50	C=CCNC(=S)N1CC2(C)CN(C(=S)NCC=C)CC(C)(C1)C2=O	1.3	2	0.5	/	-2	-6.2	22

# The list continues:
no.	structure	RanGTP-Impb inh	B2AR ag	HNF4A DNA FP	Vif TR-FRET	Calb FLC	LANA-H2B inh	ALR inh
51	Cn1c(=O)c2c(nc(NCCCO)n2Cc2cccc(Br)c2)n(C)c1=O	-0.7	-2	1.1	4%&2%	11	0.6	23
52	Cc1noc(C)c1NC(=O)N(C)C[C@H]1Oc2c(NC(=O)Nc3ccc4c(c3)OCO4)cccc2C(=O)N([C@H](C)CO)C[C@@H]1C	/	-3	-1.0	/	/	2.3	-4
53	Cc1ccc([C@@H]2C[C@H]3CN(Cc4cccc(Cl)c4)C(=O)[C@]34CCCN24)o1	2.8	-5	-0.1	3%	-1	1.6	4
54	c1cncc(-c2nc(NCc3cccs3)c3ccccc3n2)c1	4.9	4	-0.2	-44%	21	3.1	-1
55	COc1cccc(CNC(=O)Cc2ccc(-c3ccccc3)cc2)c1	-15	-13	7.2	/	-2	-1.5	-2
56	O=C(O)CSc1cccc2cccnc12	-3.1&-1.6	-4&2	-1.8&2.4	15%&2%	-3&8	-0.1&0.0	-4&-4
57	O=C(Cc1ccccc1)NCC(=O)N1CCCC1	2.1	-10	0.1	/	-21	-3.9	-2
58	COc1ccc(C(=O)Nc2ccc3c(c2)nc(CCNC(=O)c2ccco2)n3C)cc1	-3.9	-6	2.0	/	4	-2.4	-10
59	COc1ccccc1OCC(=O)/C=C1/N(C)c2ccccc2C1(C)C	?	10	0.9	6%	11	3.6	-23
60	COc1ccc(CC(=O)Nc2ccc3c(c2)CCC3)cc1OC	-2.5	0	0.6	-1%	-23	3.2	-3
61	Cc1nc2c(oc3ccccc32)c(=O)o1	5.7	5	8.4	4%	-6	-1.5	-3
62	COc1ccc(N2CCN(C(=O)c3cccc(F)c3)CC2)c([N+](=O)[O-])c1	6.1	8	5.8	18%	3	3.3	-31
63	COc1ccc(Cc2nnc(N/N=C/c3ccc(O)cc3O)[nH]c2=O)cc1OC	2.6	2	4.3	/	-3	0.5	/
64	Cc1nnnn1/C(=C\c1ccccc1)C(=O)OCC(=O)Nc1ccc(Cl)cc1F	2.9	6	-0.8	/	-6	-0.5	8
65	Cc1cc2c(c(=O)n1CC1CCCO1)C(c1ccco1)C(C#N)=C(N)O2 (centres undefined)	23*	1	2.1	8%	-13	1.1	3
66	COc1ccc(/C=C2\CCCC(C(=O)C(F)(F)F)=C2O)cc1	0.0	8	0.5	-3%	2	0.1	20
67	CC(=O)Nc1ccc(S(=O)(=O)N2CCC(NC(=O)C(Cc3cccn3C)NC(C)=O)CC2)cc1 (centres undefined)	/	11	-0.7	-7%	/	2.8	43
68	O=C(NCC1CC1)c1onc(CSc2ccc(F)c(F)c2)c1C(=O)NCC1CC1	-0.8	-1	-0.7	/	13	-4.4	/
69	CCCn1c(SCC(=O)Nc2cccc(C(=O)OC)c2)nnc1-c1cccnc1	-0.6	1	-1.2	31%	-2	1.9	-7
70	CCOC(=O)c1cc(S(=O)(=O)N2CCc3ccccc32)cn1C	0.6	5	7.0	/	-5	-0.7	0
71	Cc1cccc2sc(NC(=O)c3ccc(OCC4CCCO4)cc3)nc12 (centres undefined)	0.4	7	-0.8	-8%	10	4.1	5
72	Cc1cc(C(=O)Nc2ccc(F)cc2C)cs1	-3.5	6	4.6	-4%	-13	8.8	-5
73	CCCCCOc1ccc(C(=O)CCC(=O)Nc2ccc(NC(C)=O)cc2)cc1	-1.7	20	0.1	-1%	-39	-2.4	/
74	CCN(CC)N=Nc1cccc(NC(C)=O)c1	-1.6	0	2.1	22%	18	0.7	-36
75	Cn1c(=O)c(C(=O)COC(=O)c2cc(-c3ccco3)nc3ccccc23)c(N)n(CC2CC2)c1=O	2.1	/	/	?	18	1.8	63
76	CC1CCCCN1C(=O)/C=C/c1ccccc1[N+](=O)[O-] (centres undefined)	-0.2	0	0.2	/	-10	2.6	-14
77	C=CCNC(=O)COC(=O)/C=C/c1cccs1	4.3	5	-1.4	10%	-18	-1.9	-1
78	CCCNC(=O)c1ccccc1NC(=O)c1ccc2c(=O)n3c(nc2c1)CCC3	-0.4	-5	3.2	7%	-2	/	/
79	COc1cccc(-n2nnnc2SCC(=O)Nc2ccc(C(C)=O)cc2)c1	-3.9	-5	2.1	-66%	-4	-0.7	-5
